RGS16-Gao HTS – regulators of human RGS16-Galphao interaction. binding response (% of control), % at 10 µM. O15492+P09471. 220,000 compounds, 0.38% hits. bead-based flow cytometry RGS16-Galphao binding, fluorescence; actives lie on both sides;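 active = below 25% or above 175%, edge rows of some plates excepted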;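 note: Galphao activated by GDP with aluminum fluoride before binding; 100% = wells without compound and 0% = beads without RGS; some results beyond the cut were filed as inactive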
Target sequence (O15492 whole entry, looked up): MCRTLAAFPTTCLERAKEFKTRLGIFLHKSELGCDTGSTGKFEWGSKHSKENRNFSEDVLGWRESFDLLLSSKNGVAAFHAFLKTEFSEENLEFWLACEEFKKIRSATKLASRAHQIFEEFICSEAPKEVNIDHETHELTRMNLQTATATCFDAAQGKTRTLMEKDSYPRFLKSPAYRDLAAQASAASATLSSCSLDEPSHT
Target sequence (P09471 whole entry, looked up): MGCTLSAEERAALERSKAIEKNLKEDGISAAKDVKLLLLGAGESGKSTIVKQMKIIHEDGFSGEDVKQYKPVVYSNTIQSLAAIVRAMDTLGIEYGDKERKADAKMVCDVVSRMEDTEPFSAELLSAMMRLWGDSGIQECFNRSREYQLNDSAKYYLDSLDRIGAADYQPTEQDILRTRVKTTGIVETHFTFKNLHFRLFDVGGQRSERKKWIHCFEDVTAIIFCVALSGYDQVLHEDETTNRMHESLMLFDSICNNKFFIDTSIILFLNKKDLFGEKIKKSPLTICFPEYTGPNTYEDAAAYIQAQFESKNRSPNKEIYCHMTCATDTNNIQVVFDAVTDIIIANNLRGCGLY
Insulin prom inh – TRM-6 insulin promoter activity inhibition | 130,000 compounds, 0.9% hits | TRM-6 cells (human fetal islet line), insulin promoter-eGFP reporter, imaging; reporter expression induced with tamoxifen | inhibition, % at 2 µM;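 active = inhibition above the mean plus 3 SD, with well images judged a real hit on visual review, cut at about 60% in these data, passing the limit was not always enough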
PKD1 kinase inh – blocks activity of human protein kinase D1 | PKD1 kinase fluorescence polarization assay | inhibition, %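 (about 10 µM by stock and volumes)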 | 200,000 compounds, 0.056% hits | AID 797;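 active = inhibition of 50% or more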;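 note: controls were vehicle for no effect and a reference inhibitor for full effect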
GALR2 agonist – GALR2 (human) receptor agonism; O43603; GALR2-expressing cells, agonist activation read-out; activation, %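 (tested at 5 µM)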; 140,000 compounds, 0.48% hits; AID 803;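 active = above mean plus 3 SD of all compounds, about 5% in these data, not always enough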;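 note: 0% = vehicle buffer wells and 100% = reference agonist at full effect; tested in CHO reporter cells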
Target sequence (O43603 whole entry, looked up): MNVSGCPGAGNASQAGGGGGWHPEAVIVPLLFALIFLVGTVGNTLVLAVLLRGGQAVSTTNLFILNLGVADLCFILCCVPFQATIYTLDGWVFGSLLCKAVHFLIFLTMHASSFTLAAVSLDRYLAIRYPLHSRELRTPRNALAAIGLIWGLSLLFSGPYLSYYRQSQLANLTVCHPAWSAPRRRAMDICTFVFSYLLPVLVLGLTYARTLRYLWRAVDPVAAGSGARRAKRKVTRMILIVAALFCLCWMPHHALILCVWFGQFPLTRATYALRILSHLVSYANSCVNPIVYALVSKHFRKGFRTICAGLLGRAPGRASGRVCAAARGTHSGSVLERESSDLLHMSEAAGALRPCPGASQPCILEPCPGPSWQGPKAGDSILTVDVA
HSV replic up – increases HSV replication in cells; HSV replication augmentation in cells, fold increase; maximum fold increase; 220,000 compounds, 0.005% hits; AID 1956;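 active = peak rise of 1.5-fold or more in the series; tested in PC3 cells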;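 note: first round at 10 µM; read as green reporter fluorescence; hits show the peak of a series up to 25 µM; 1 = signal of infected wells without compound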
Insulin prom inh cell count – recorded beside Insulin prom inh, whose call it bears; normalized cell count, %; measured here: cell count, toxicity; reference of the scale not given here;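 cells exposed to compound for 48 h; stained nuclei by imaging scaled within each plate; lower means fewer cells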
HSV replic up primary fold – second read-out of HSV replic up, no call of its own (marks repeat the call); fold increase; compound at 10 µM; measured here: primary screen fold increase 10 uM; tested in PC3 cells;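 GFP signal in the first replicate; 1 = infected wells without compound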
The depositor's hits bear a star; i = inactive; / = not tested or not shown.

Each structure is followed by: RGS16-Gao HTS	Insulin prom inh	Insulin prom inh cell count	PKD1 kinase inh	GALR2 agonist	HSV replic up	HSV replic up primary fold
> Cc1cc(C=C(C#N)C#N)c(C)n1-c1ccccc1
 : 104	0	123	-11	-1.2	i	0.88
> Cc1c(Cl)c([N+](=O)[O-])nn1CC(=O)N1CCN(Cc2ccccc2)CC1
 : 97	/	/	3	/	i	0.85
> Cn1c(=O)c2c(nc(NCc3ccco3)n2CC(O)COc2ccccc2)n(C)c1=O (centres undefined)
 : 103	/	/	9	-1.6	/	/
> FC(F)(F)c1nnc(-c2ccccc2)nc1Oc1ccc(Cl)cc1Cl
 : 104	/	/	-6	-1.3	/	/
> NC(=O)c1c(NC(=O)Cn2nc(C(=O)O)c3ccccc3c2=O)sc2c1CCCC2
 : 101	/	/	/	/	i	0.77
> O=S(=O)(NCc1ccc(Cl)cc1Cl)c1ccc(N2CCOCC2)nc1
 : 105	/	/	/	/	i	0.93
> CCOC(=O)c1cc(-c2ccc(C)o2)n[nH]1
 : 105	-3	107	-5	-1.0	i	0.93
> CC(=O)NNc1cc(N2CCOCC2)nc(N2CCOCC2)n1
 : 101	/	/	-3	/	i	0.99
> COCCn1nnnc1C(c1cc2cc(C)cc(C)c2[nH]c1=O)N1CCN(c2ccccc2F)CC1 (centres undefined)
 : 108	-8	115	-9	-0.9	i	0.79
> Cc1ccc(-n2c(CCC(=O)O)ccc2-c2cccs2)cc1
 : 92	-64	30	1	-1.0	i	1.3

(continued)
Each structure is followed by: RGS16-Gao HTS	Insulin prom inh	Insulin prom inh cell count	PKD1 kinase inh	GALR2 agonist	HSV replic up	HSV replic up primary fold
> O=C1NCCCc2c1oc1ccc(O)cc21
 : 108	/	/	100*	-2.0	i	0.93
> CCc1ccccc1NC(=S)N(CCN1CCCCCC1)Cc1ccco1
 : 103	-60	74	-3	/	i	0.9
> O=S(=O)(c1ccc(Cl)cc1)n1nnc2ccccc21
 : 104	39	68	-11	-1.6	i	0.9
> Cc1noc(C(F)(F)F)c1C(=O)NNC(=O)c1ccccc1
 : 95	/	/	/	/	i	1.2
> O=C(CN1CCCC1)NC12CC3CC(CC(C3)C1)C2
 : 105	42	113	1	-1.4	i	0.9
> CCOC(=O)CC(NC(=O)CCc1c(C)nc2ncnn2c1C)c1ccc(C)cc1 (centres undefined)
 : 101	-53	70	-8	/	i	0.81
> Oc1ccccc1/C=C/c1noc(-c2ccccc2O)n1
 : 102	/	/	-2	/	i	0.97
> CC(C)CCn1cnc2c(oc3nc4c(cc32)CCCC4)c1=O
 : 96	/	/	/	/	i	0.98
> Cc1cc(C(=O)OCC(=O)Nc2cccc(S(N)(=O)=O)c2)c2ccccc2n1
 : 100	/	/	/	/	i	1
> CCC(=O)NCCC(c1ccco1)c1ccccc1OC (centres undefined)
 : 56	-11	70	-9	-1.7	i	1.1

More entries follow:
Each structure is followed by: RGS16-Gao HTS	Insulin prom inh	Insulin prom inh cell count	PKD1 kinase inh	GALR2 agonist	HSV replic up	HSV replic up primary fold
> COc1ccc2c(c1OC)C(=O)N(c1ccccc1)C2=O
 : 107	/	/	-3	/	i	0.87
> O=c1c(-c2nc3ccccc3s2)cccn1Cc1ccc(Cl)c(Cl)c1
 : 104	-7	87	-17	12*	i	0.87
> Cc1ccccc1C(=O)OC(C)CN1CCOCC1 (centres undefined)
 : 104	/	/	-2	/	i	1.1
> C=CCNC(=O)COC(=O)c1cc(S(=O)(=O)N2CCOCC2)ccc1N1CCCCC1
 : 99	-14	114	5	-1.1	i	0.87
> COC(C(=O)NNC(=O)Cc1ccc(Cl)cc1)c1ccccc1 (centres undefined)
 : 102	/	/	/	/	i	1.2
> COc1ccc(-c2csc(/C(C#N)=C(\O)CSc3nccn3C)n2)cc1OC
 : 99	35	79	-6	-3.5	i	1.1
> CCOc1ccccc1C(=O)Nc1cnn(Cc2ccc(F)cc2)c1
 : 103	-7	100	6	-0.9	i	0.76
> CCOCCCNCC(O)c1ccccc1 (centres undefined)
 : 108	18	119	-6	-0.2	i	0.94
> COc1nc(NC(C)(C)C)nc(Oc2ccc(=O)n(-c3ccccc3)n2)n1
 : 102	-12	68	-2	-0.3	i	0.91
> CN1C(=O)NC(c2ccccc2)C2=C1CN(Cc1ccccc1)C2=O (centres undefined)
 : /	7	104	-4	-0.4	i	0.78

In another format: entries from further up
| structure | RGS16-Gao HTS | Insulin prom inh | Insulin prom inh cell count | PKD1 kinase inh | GALR2 agonist | HSV replic up | HSV replic up primary fold |
| --- | --- | --- | --- | --- | --- | --- | --- |
| O=c1c(-c2nc3ccccc3s2)cccn1Cc1ccc(Cl)c(Cl)c1 | 104 | -7 | 87 | -17 | 12* | i | 0.87 |
| Cc1ccccc1C(=O)OC(C)CN1CCOCC1 (centres undefined) | 104 | / | / | -2 | / | i | 1.1 |
| C=CCNC(=O)COC(=O)c1cc(S(=O)(=O)N2CCOCC2)ccc1N1CCCCC1 | 99 | -14 | 114 | 5 | -1.1 | i | 0.87 |
| COC(C(=O)NNC(=O)Cc1ccc(Cl)cc1)c1ccccc1 (centres undefined) | 102 | / | / | / | / | i | 1.2 |
| COc1ccc(-c2csc(/C(C#N)=C(\O)CSc3nccn3C)n2)cc1OC | 99 | 35 | 79 | -6 | -3.5 | i | 1.1 |
| CCOc1ccccc1C(=O)Nc1cnn(Cc2ccc(F)cc2)c1 | 103 | -7 | 100 | 6 | -0.9 | i | 0.76 |

Reformatted bar-delimited: entries from further up
Compound | RGS16-Gao HTS | Insulin prom inh | Insulin prom inh cell count | PKD1 kinase inh | GALR2 agonist | HSV replic up | HSV replic up primary fold
CCOCCCNCC(O)c1ccccc1 (centres undefined) | 108 | 18 | 119 | -6 | -0.2 | i | 0.94
COc1nc(NC(C)(C)C)nc(Oc2ccc(=O)n(-c3ccccc3)n2)n1 | 102 | -12 | 68 | -2 | -0.3 | i | 0.91
CN1C(=O)NC(c2ccccc2)C2=C1CN(Cc1ccccc1)C2=O (centres undefined) | / | 7 | 104 | -4 | -0.4 | i | 0.78

The list goes on.
Each structure is followed by: RGS16-Gao HTS	Insulin prom inh	Insulin prom inh cell count	PKD1 kinase inh	GALR2 agonist	HSV replic up	HSV replic up primary fold
> Cc1ccc(S(=O)(=O)Nc2ccccc2/C=N/c2nc3ccccc3n2C)cc1
 : 102	-21	117	-8	0.7	i	1
> COc1cc(C(C(=O)NC(C)(C)C)N(Cc2ccccc2)C(=O)c2cnccn2)cc(OC)c1OC (centres undefined)
 : 95	/	/	-16	0.5	i	0.93
> CCC(=O)NNC(=O)c1cc(COc2cc(Cl)cc(Cl)c2)on1
 : 97	/	/	/	/	i	1.2
> CN(C)S(=O)(=O)c1cccc(NC(=S)NN=C(Cc2ccccc2)Cc2ccccc2)c1
 : 101	10	119	8	-0.7	i	1
> CCOc1cc(C(=O)O)cc(Cl)c1OCC#N
 : 51	-41	85	0	-3.1	i	0.74
> Cc1nc(SCCOc2ccccc2)[nH]c(=O)c1Cc1ccccc1
 : 111	/	/	-5	/	i	0.98
> CC(=O)/C(=N\Nc1ccccc1)Sc1cccc2cccnc12
 : 102	19	115	-2	-0.9	i	0.97
> Cn1c(NC(=O)c2ccco2)cc(=O)n(C)c1=O
 : 88	/	/	-18	-0.8	i	0.91
> OC1(c2ccc(OC(F)F)cc2)CSC(=Nc2cccnc2)N1Cc1ccco1 (centres undefined)
 : 71	-9	65	-1	/	i	0.94
> Cc1noc(NC(=O)c2cccc(C(F)(F)F)c2)c1Cl
 : 101	/	/	-5	/	i	1.1

Carrying on:
Each structure is followed by: RGS16-Gao HTS	Insulin prom inh	Insulin prom inh cell count	PKD1 kinase inh	GALR2 agonist	HSV replic up	HSV replic up primary fold
> Cc1cccn2c(=O)c3cc(C#N)c(=N)n(CC4CCCO4)c3nc12 (centres undefined)
 : /	29	114	10	0.0	/	/
> Nc1nc(Cl)cc(NCCc2ccccc2)n1
 : 117	9	86	-10	/	i	0.91
> O=C(c1ccccc1F)N1CCCC(C(=O)N2CCN(c3ccccc3)CC2)C1 (centres undefined)
 : 119	/	/	/	/	i	0.84
> CC(C)CN1C(=O)c2ccc(C(=O)Nc3ccccn3)cc2C1=O
 : 121	/	/	-5	-0.2	i	0.81
> O=C(Cn1ccc([N+](=O)[O-])n1)N1CCCCCC1
 : 100	18	113	3	/	i	1.1
> CCOC(=O)C1(C(F)(F)F)N=C(C(F)(F)F)Nc2ccc(F)cc21 (centres undefined)
 : 61	-79	98	-4	-0.9	i	0.97
> Cc1ccc(OCC(=O)Nc2ccc(S(=O)(=O)N3CCOCC3)cc2)c([N+](=O)[O-])n1
 : 107	0	140	0	/	i	1
> CCC1=C(OC(=O)N(CC)CC)N2C(=O)OC(=NCC3CC3)[C@]2(C)[C@H]2C1=CC[C@H]1C(=O)N(CC)C(=O)[C@H]12
 : 100	/	/	/	/	i	0.85
> O=C(/C=C/c1cccc([N+](=O)[O-])c1)NCCN1CCOCC1
 : 105	-7	64	-9	-0.8	i	0.98
> CC(=O)N/N=C(\C)c1cccc(NC(=O)c2cccs2)c1
 : 43	-29	91	9	-0.6	i	1

Later entries
Each structure is followed by: RGS16-Gao HTS	Insulin prom inh	Insulin prom inh cell count	PKD1 kinase inh	GALR2 agonist	HSV replic up	HSV replic up primary fold
> CCOc1cc(C(=O)OCC(=O)Nc2ccc(SC(F)F)cc2)cc(OCC)c1OCC
 : 97	-36	80	6	-0.1	i	1
> COC(=O)c1sc(N)nc1C(C)(C)C
 : 106	-20	91	2	-0.5	i	0.85
> CCCCn1c(O)c(N=NC(=O)Cn2c(C(F)(F)F)nc3ccccc32)c2ccccc21
 : 102	33	86	6	-0.6	i	1
> CCOC(=O)c1nnn(-c2nonc2N)c1CN(CC)CC
 : 81	-31	104	3	-1.9	i	0.94
> CCN(CC)S(=O)(=O)c1ccc(C(=O)NCCCn2ccnc2)cc1
 : 112	9	107	-13	/	i	0.99
> O=C(O)/C=C/c1cn(Cc2ccccc2)nc1-c1cccs1
 : 101	/	/	1	/	i	1
> COc1cc2c3c(c1OC)C1(C=CC(=O)C=C1)CC3N(C(C)=O)CC2 (centres undefined)
 : 105	-33	99	-2	1.7	i	1
> CCS(=O)(=O)N1CCN(c2cc3c(cc2[N+](=O)[O-])n(C)c(=O)n3C)CC1
 : 104	31	98	-4	/	i	0.97
> O=[N+]([O-])c1ccc(-c2cnc(SCc3ccccc3Cl)[nH]2)cc1
 : 94	-3	162	-6	-1.3	i	1.1
> COc1cc(/C=N/Nc2cccc(C)c2)ccc1OC(=O)c1cccs1
 : 94	-233	0	-20	-1.4	i	1.1

Further structures follow:
Each structure is followed by: RGS16-Gao HTS	Insulin prom inh	Insulin prom inh cell count	PKD1 kinase inh	GALR2 agonist	HSV replic up	HSV replic up primary fold
> CC(O)CNc1ncnc2nc[nH]c12 (centres undefined)
 : 19	/	/	-4	-3.1	i	0.93
> O=C(/C=C/c1ccc(O)cc1)c1ccccc1
 : 102	/	/	/	/	i	0.92
> COc1ccc(NC(=O)C(OC)c2ccccc2)cc1Cl (centres undefined)
 : 91	-194	146	-10	-1.3	i	0.97
> COc1cc(OC)cc(C(=O)NC2CCN(C(=O)N3c4ccccc4Sc4ccccc43)CC2)c1
 : 93	-33	68	-13	0.9	i	1
> Cc1ccc(Cn2ncc3c(N4CCN(CC#N)CC4)ncnc32)cc1
 : 94	9	88	-3	/	i	1
> CCOC(=O)c1ccccc1NC(=O)CSc1nc2ccccc2c(=O)[nH]1
 : 90	/	/	-1	/	i	0.88
> C=CC[N+](C)(C)CCCNC(=O)/C=N/O
 : 114	37	100	-4	0.1	i	0.99
> CC[n+]1c(/C=C/N(C)c2ccccc2)oc2ccc(F)cc21
 : 90	-6	56	6	-0.7	i	1.2
> CCCCNC(=O)C(=O)N/N=C/c1ccc(C(=O)OC)cc1
 : 86	/	/	-2	/	i	0.9

Screening data (PubChem BioAssay)

No enrichment for hits, and some 1.3% of all compounds hit somewhere here.
